Screens (PubChem BioAssay)
Rce1 inhib: inhibitors of yeast Ras-converting enzyme. yeast membranes, quenched prenylated peptide cleavage fluorescence. calls only. 0.27% of 290,000 active;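 active = fall in fluorescence gain of 50% or more versus controls, with final raw signal at or below 3038400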;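 note: plate controls were neutral control wells for no effect and wells lacking membranes for full effect; tested at 10 µM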
Target sequence (Q03530 whole entry, looked up): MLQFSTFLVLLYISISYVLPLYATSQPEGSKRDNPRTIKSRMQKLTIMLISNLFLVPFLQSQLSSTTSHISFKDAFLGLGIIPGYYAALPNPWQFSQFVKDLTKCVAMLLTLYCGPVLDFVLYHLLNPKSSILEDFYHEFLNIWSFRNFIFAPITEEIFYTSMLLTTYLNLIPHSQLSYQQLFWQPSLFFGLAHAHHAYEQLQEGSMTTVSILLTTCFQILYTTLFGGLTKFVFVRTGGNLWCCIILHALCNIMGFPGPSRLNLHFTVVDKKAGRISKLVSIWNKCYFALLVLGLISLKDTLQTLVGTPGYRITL
UUG fidelity: alters start codon recognition fidelity in yeast. S. cerevisiae UUG-firefly luciferase reporter, luminescence/redox ratio. activity score, % at 18.7 µM. 0.13% of 350,000 active. AID 602363;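 active = replicate mean at a twofold rise or more, about +100% in these data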;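 note: firefly luciferase made from a UUG start codon reports start codon fidelity; reporter light over untreated wells divided by growth signal over untreated wells; some hits fall short of that in this replicate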
MT1-MMP act inh: MT1-MMP (human) activation inhibition; P50281; GFP/RFP ratio change, % at 20 µM; HT1080 RFP-PRO-GFP cells, GFP/RFP ratio fluorescence, overnight; percent of plate control window, DMSO zero; 0.061% of 360,000 active;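 active = GFP/RFP ratio change of at least 30% with cell ATP level not reduced by more than half and red fluorescence within 50% of control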; note: strong numbers were not always called active
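Assay system: RFP-PRO-GFP reporter HT1080 cells; read-out basis: GFP/RFP fluorescence ratio; benchmarks: DMSO wells and RFP-L50D-GFP cells; doses: 20 µM single dose, 1% DMSO; schedule: overnight cell settling, then overnight compound exposure, 37 °C, 5% CO2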
HIV Env fusion: blocks HIV Env-driven cell-cell fusion; 1.1% of 360,000 active; inhibition, % at 12.3 µM; HeLa-JRFL Env/CEM21 cell fusion, luciferase; AID 651610;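 active = mean replicate inhibition score of at least 50 and every replicate individually at or above 50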;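 note: 0% = plate neutral controls and 100% = maraviroc near 300 nM; one replicate is shown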
PABP FP inh: PABP-poly(A) binding inhibition | P11940 | PABP-poly(A) RNA binding, fluorescence polarization | inhibition, % at 35 µM | 1% of 290,000 active;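 active = 50% or more with normal probe brightness, or confirmed in later tests; about a fifth of its hits are not listed in these tables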;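 note: calls also rest on retests at 20 µM and on dose response follow-up; controls were probe without protein and protein plus probe with vehicle; some compounds called inactive have numbers as strong as hits; many hits fall short of the cut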
CSC inhib: blocks cancer stem cells; cancer stem cell-like cells viability, luminescence; inhibition, % at 7.5 µM; 1.1% of 300,000 active; AID 2717;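 active = mean at 75% or more and at least half the replicates too; tested in HMLE shEcad cells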;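 note: 0% = median of negative and 100% = median of positive control wells; the first replicate is given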
eIF4H FP inh: inhibitors of RNA binding by human eIF4H. eIF4H fluorescence polarization binding assay. AID 2012. Q15056. 0.94% of 290,000 active. inhibition, % at 35 µM;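 active = 50% or more with normal probe brightness, or confirmed in later tests; about a fifth of its hits are not listed in these tables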;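 note: calls also rest on retests at 20 µM and on dose response follow-up; 0% = protein and probe with vehicle and 100% = probe without protein; strong numbers were not always called active; many hits fall short of the cut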
eIF4H FP inh retest: second read-out of eIF4H FP inh, no call of its own (marks repeat the call); inhibition, %; compound at 20 µM; confirmation average;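 mean of two retest wells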
PABP FP inh retest: further read-out of PABP FP inh, marked with its call; inhibition, %; compound at 20 µM; confirmation repeats;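 mean of two retest wells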
MT1-MMP act inh RFP: second read-out of MT1-MMP act inh, no call of its own (marks repeat the call); RFP signal change, %; measured here: RFP expression control read;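 0 = vehicle wells; hits needed this value within 50% of zero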
Numbers without * were called inactive; i = inactive; · = not tested or not shown. An excerpt. The share of hits here may be higher or lower than overall.

SMILES	Rce1 inhib	UUG fidelity	MT1-MMP act inh	MT1-MMP act inh RFP	HIV Env fusion	PABP FP inh	CSC inhib	eIF4H FP inh	others
CN(Cc1ccccc1)C(=O)c1[nH]cnc1C(=O)Nc1ccc(Br)cc1F	·	-11	-2	-12	4	·	·	·
COCCNC(=O)C(c1ccccc1)N(Cc1cccs1)C(=O)Cn1nnc2ccccc21 (configuration not stated)	i	-15	-1	4	-50	4	-6	-2
CCCCn1c(SCC(=O)NC2CCCC2)nc2ccccc2c1=O	i	·	-2	0	·	·	-4	·
CCC(=O)N1CCc2cc(S(=O)(=O)CCC(=O)N3CCN(c4ccc(Cl)cc4)CC3)ccc21	i	·	-1	-25	24	9	-9	-17
O=C(Nc1ccccc1N1CCCC1)c1cc(Cl)ccc1Cl	i	·	-1	0	9	6	27	-1
O=C(CSc1nncn1-c1ccccc1F)NC1CCCCC1	·	0	-1	2	·	·	17	·
COC(=O)Cn1c(=NC(=O)c2cc(OC)cc(OC)c2)sc2cc(OC)ccc21	i	-12	2	-5	-132	-7	·	2
Cc1cc(C(=O)COC(=O)c2nc3nccc(C)n3n2)c(C)n1CC1CCCO1 (configuration not stated)	i	·	1	8	24	5	-15	0
Cc1cccc(NC(=O)c2cc3n(n2)C(C(F)(F)F)CC(C2CC2)N3)c1C (configuration not stated)	i	-12	-3	-1	-103	28	-5	-9
COCc1cc(C)nc2sc(C(=O)Nc3ccc(C(=O)OC)cc3)c(N)c12	i	-7	2	-3	0	19	36	8
CC(=O)c1ccc2noc(-c3ccc(F)cc3)c2c1	i	-1	-15	-5	-4	-8	6	69	eIF4H FP inh retest=-10;PABP FP inh retest=1
O=C(CSc1nnc(CNC(=O)c2cccs2)o1)NCCc1ccccc1	i	5	-4	4	-8	1	·	4

Next section; it opens with the 3 that closed the last part.
SMILES	Rce1 inhib	UUG fidelity	MT1-MMP act inh	MT1-MMP act inh RFP	HIV Env fusion	PABP FP inh	CSC inhib	eIF4H FP inh	others
COCc1cc(C)nc2sc(C(=O)Nc3ccc(C(=O)OC)cc3)c(N)c12	i	-7	2	-3	0	19	36	8
CC(=O)c1ccc2noc(-c3ccc(F)cc3)c2c1	i	-1	-15	-5	-4	-8	6	69	eIF4H FP inh retest=-10;PABP FP inh retest=1
O=C(CSc1nnc(CNC(=O)c2cccs2)o1)NCCc1ccccc1	i	5	-4	4	-8	1	·	4
COC(=O)c1sccc1NC(=S)N1C(C)CCCC1C (configuration not stated)	i	·	-1	-1	7	-4	-16	-3
Cc1ccccc1NC(=S)NCCc1ccc(S(N)(=O)=O)cc1	i	·	2	5	-5	2	-21	3
CCOc1ccc(N(CC(=O)Nc2ccc(OC)cc2)S(=O)(=O)c2c(C)noc2C)cc1	i	-17	-2	-2	-6	6	-7	5
Cc1csc(=O)n1CC(=O)OCC(=O)c1c(N)n(CC(C)C)c(=O)n(C)c1=O	i	·	3	-7	-14	·	-5	·
CCCN1CCC(NC(=O)C2CC=CCC2C(=O)O)CC1 (configuration not stated)	i	-37	-2	3	7	-6	·	-2
CCOc1cc(Br)c(C(=O)O)cc1OC	i	-16	·	·	-51	15	-13	-1
O=C(CSc1nc2ccccc2[nH]1)N1CCN(S(=O)(=O)c2ccc(Cl)cc2)CC1	i	·	·	·	·	-2	-6	2
Cc1cc(C)nc(SCC(=O)NC2CCCC2)n1	i	·	-1	2	-3	-2	9	-6
Cc1ccc(C(=O)Nc2ccccc2N2CCCC2)s1	·	-4	-7	5	-4	·	·	·
CC(C)CNC(=O)CSc1ccc(Cl)cc1	i	-36	1	2	·	-3	-13	3
Cc1onc(-c2ccccc2)c1C(=O)N/N=C/c1cn(C)c2ccccc12	i	-17	-8	-9	27	-5	-6	-1
CCOC(=O)Cn1c(=O)n(Cc2ccc(C)cc2)c(=O)c2cccnc21	i	-10	4	1	17	-9	-19	-9
Cc1ccc(NCc2nnc(SCC(=O)NCc3ccco3)n2CC2CCCO2)cc1Cl (configuration not stated)	i	·	1	-1	40	0	-9	-2
O=C1NC2(c3ccccc3)NC(=O)NC2(c2ccccc2)N1 (configuration not stated)	·	-17	1	-1	16	·	·	·
CCOc1ccc2[nH]c(C(=O)N/N=C/c3cc(OC)c(OC)c(OC)c3)cc2c1	i	11	8	-3	-71	-3	9	-9
COCc1cccc(-c2csc(C(NC(C)=O)c3ccc(F)c(F)c3)n2)c1 (configuration not stated)	·	-8	-6	-3	7	·	·	·
CSc1ccc(/C=N/NC(=O)c2cccc(O)c2)cc1	i	-39	0	1	·	-2	28	-10
Cc1ccc2c(c1)nnn2C1CCN(CC(=O)Nc2ccccc2N2CCOCC2)CC1	·	-5	3	-10	·	3	-6	-9
CSCCC1NC(=O)N(CC(=O)Nc2ccc(-c3ccccc3)cc2)C1=O (configuration not stated)	·	-22	-4	-1	3	-11	0	-10
COc1ccc(OCc2nn3c(-c4ccco4)nnc3s2)cc1	i	-13	-1	-2	·	18	-10	11
COCCNC(=O)Cn1cc(C(=S)N2CCOCC2)c2ccccc21	i	-9	-2	2	-4	-6	1	-14
Cc1ccc2nc(-c3ccc(NC(=O)COC(=O)c4ccco4)cc3)sc2c1	i	·	8	1	-126	1	10	-6
CNc1c(NS(=O)(=O)c2ccc(C3CCCCC3)cc2)c(=O)oc2ccccc12	i	-2	3	2	4	3	-15	-2
CNC(=S)N/N=C/c1cc(C)n(-c2ccc(Cl)c(Cl)c2)c1C	i	·	5	2	-27	1	16	-6
CN(C(=O)CCc1ccccc1)c1nnc(-c2ccncc2)s1	i	·	-2	-7	-1	-7	4	-1
Cc1ccc2cc(CN(Cc3ccccc3)Cc3nnnn3C3CCCC3)c(=O)[nH]c2c1	i	·	-7	-13	·	-5	·	-6
COc1ccc(CCNC(=O)c2ccnc(C(C)(C)C)c2)cc1OC	i	·	3	-4	13	·	1	·
CCn1c(=S)[nH]c2cc(C(=O)OC)ccc2c1=O	i	-15	6	-1	-192	-7	-1	-7
Cc1cc(C)c(C#N)c(N2CCN(C(=O)C3COc4ccccc4O3)CC2)n1 (configuration not stated)	·	-6	1	-3	-6	·	·	·
COc1ccc(NS(=O)(=O)c2ccc3c(c2)Cc2ccccc2-3)cn1	i	·	-5	-14	42	-3	15	-2
O=C(NCc1ccco1)c1ccc2ccccc2c1	i	-21	6	-2	·	2	-5	3
O=S(=O)(c1cccc(C(F)(F)F)c1)N1CCC(c2nc3ccccc3[nH]2)CC1	i	2	2	-2	3	-10	·	-5
COC(=O)COc1ccsc1C(=O)OC	i	-14	2	4	·	-14	-12	-3
Cc1cc(O)c(C(=O)/C=C/c2ccccc2Br)c(=O)o1	i	-13	-41	7	35	1	12	3
Nc1ccc(N2N=C(N3CCCC3)CC2=O)cc1	·	4	12	4	15	·	·	·
O=C(CN1CCN(Cc2ccc3c(c2)OCO3)CC1)Nc1ccc(N2CCOCC2)cc1	i	·	0	6	4	4	-17	10
N#CC[C@H](Cc1ccccc1)N1CCN(Cc2ccccc2)CCC1=O	i	-15	1	-1	12	-8	-2	-3
CN(c1ccc(C(=O)N2CCCCC2)cc1)S(=O)(=O)c1ccccc1	i	0	5	-7	·	-6	·	-1
COc1cc(C(C[N+](=O)[O-])c2c(C)[nH]c3ccccc23)ccc1O (configuration not stated)	i	-18	17	12	-20	12	-10	0
c1ccc(CN2CCN(C(c3ccccc3)c3nnnn3Cc3ccccc3)CC2)cc1 (configuration not stated)	i	-11	-13	-11	·	1	-6	-3
Cc1ccc(C)c(N/C(N)=N/c2nc(C)cc(C)n2)c1	i	-17	-5	-6	·	-2	4	2
COc1cc2cc(C(=O)N(C)Cc3ccccc3)[nH]c2cc1OC	i	-3	2	5	-15	5	6	4
COC(=O)/C=C1\SC(=NC(=O)c2cccc(Cl)c2)NC1=O	i	·	0	0	4	19	7	-6
COc1cccc(CSc2nnc(CSc3nc4nc(C)cc(C)n4n3)s2)c1	i	-12	-5	-7	·	-8	-19	-9
CC(=O)c1ccccc1NC(=O)CCN1C(=O)C2CCCCC2C1=O (configuration not stated)	·	·	2	5	12	·	-20	·
Cc1nc2ccc(C(=O)N(C)Cc3ccco3)cn2c1N(C)C(=O)CCc1ccccc1	·	0	2	4	13	·	·	·
O=C(N/N=C/c1ccc(C(F)(F)F)cc1)c1ccc(O)cc1	i	-17	3	0	-2	-5	·	-1
CCC(=O)C1CCCN(C(=O)c2ccc(OC)c(OC3CCN(C(C)=O)CC3)c2)C1 (configuration not stated)	i	4	0	3	-14	6	-11	-7

Arranged by count of non-hydrogen atoms (ascending): part of the list above.
SMILES	Rce1 inhib	UUG fidelity	MT1-MMP act inh	MT1-MMP act inh RFP	HIV Env fusion	PABP FP inh	CSC inhib	eIF4H FP inh	others
CCCN1CCC(NC(=O)C2CC=CCC2C(=O)O)CC1 (configuration not stated)	i	-37	-2	3	7	-6	·	-2
CCCCn1c(SCC(=O)NC2CCCC2)nc2ccccc2c1=O	i	·	-2	0	·	·	-4	·
Cc1csc(=O)n1CC(=O)OCC(=O)c1c(N)n(CC(C)C)c(=O)n(C)c1=O	i	·	3	-7	-14	·	-5	·
Cc1cc(C(=O)COC(=O)c2nc3nccc(C)n3n2)c(C)n1CC1CCCO1 (configuration not stated)	i	·	1	8	24	5	-15	0
Cc1ccc2c(c1)nnn2C1CCN(CC(=O)Nc2ccccc2N2CCOCC2)CC1	·	-5	3	-10	·	3	-6	-9

Later entries.
SMILES	Rce1 inhib	UUG fidelity	MT1-MMP act inh	MT1-MMP act inh RFP	HIV Env fusion	PABP FP inh	CSC inhib	eIF4H FP inh	others
C=CCn1c2ccccc2c(=O)c2cc(C#Cc3ccccn3)ccc21	·	1	5	3	-59	·	76*	·
CC(=O)Nc1cccc(Oc2ncnc3scc(-c4ccc(C)cc4)c23)c1	·	-4	-8	-6	13	4	-4	3
CN1c2ccccc2C(C)(C)C12CC(c1cccc(S(=O)(=O)N3CCCC3)c1)=NO2 (configuration not stated)	i	·	1	6	15	1	5	3
CCOC(=O)C(C(=O)Nc1ccc(C)cc1)C1CCCCC1 (configuration not stated)	i	-14	-8	-5	·	4	19	-3
Cc1ccc(C(=O)Nc2ccccc2C(=O)N2CC3(C)CC2CC(C)(C)C3)cc1 (configuration not stated)	i	13	-6	-9	13	-4	-17	-9
CCc1nnc(NC2=NCCC2)s1	·	-7	-4	3	·	-10	-2	-4
N=c1c(C(=O)NCCN2CCOCC2)cc2c(=O)n3ccccc3nc2n1CCCN1CCOCC1	i	-22	-6	-10	-3	19	-5	14
COc1cccc(NC(=O)COc2ccc(N3CC(C(=O)NCC(C)C)CC3=O)cc2)c1 (configuration not stated)	i	-12	-4	-5	-2	-4	·	-10

Entries shown so far that contain a thiophene ring, fused or not:
SMILES	Rce1 inhib	UUG fidelity	MT1-MMP act inh	MT1-MMP act inh RFP	HIV Env fusion	PABP FP inh	CSC inhib	eIF4H FP inh	others
COCCNC(=O)C(c1ccccc1)N(Cc1cccs1)C(=O)Cn1nnc2ccccc21 (configuration not stated)	i	-15	-1	4	-50	4	-6	-2
COCc1cc(C)nc2sc(C(=O)Nc3ccc(C(=O)OC)cc3)c(N)c12	i	-7	2	-3	0	19	36	8
O=C(CSc1nnc(CNC(=O)c2cccs2)o1)NCCc1ccccc1	i	5	-4	4	-8	1	·	4
COC(=O)c1sccc1NC(=S)N1C(C)CCCC1C (configuration not stated)	i	·	-1	-1	7	-4	-16	-3
Cc1ccc(C(=O)Nc2ccccc2N2CCCC2)s1	·	-4	-7	5	-4	·	·	·
COC(=O)COc1ccsc1C(=O)OC	i	-14	2	4	·	-14	-12	-3
CC(=O)Nc1cccc(Oc2ncnc3scc(-c4ccc(C)cc4)c23)c1	·	-4	-8	-6	13	4	-4	3
